Screens from PubChem BioAssay.
LANA-H2B inh – blocks KSHV LANA binding to histone H2A/H2B; Q9QR71; cell-free LANA-H2A/H2B peptide, fluorescence polarization; AID 2629; hit rate 0.6% among 320,000; inhibition, % (no concentration beside the values); in the data active = inhibition mostly above about 10%, no sharp cut-off; inactive = mostly below about 6.7%;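 also: stock transfer was 7.5 nL into about 10 µL; 0% = median of vehicle wells and 100% = median of positive control wells; one replicate is shown; the record names a cut of 25% in any replicate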
HNF4A DNA FP – change in binding of human HNF4 alpha to DNA | P41235 | HNF4a-FITC DNA binding, fluorescence polarization, 1 h | activity change, % at 10 µM | hit rate 0.3% among 360,000; in the data active = activity change above about 30%, passing the limit was not always enough;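 also: controls were the assay level and a saturating level of protein; the project sought stronger binding though the title names inhibitors; some compounds called inactive have numbers as strong as hits; positive values seem to mean higher polarization but the record does not say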
Target sequence (P41235 whole entry, looked up): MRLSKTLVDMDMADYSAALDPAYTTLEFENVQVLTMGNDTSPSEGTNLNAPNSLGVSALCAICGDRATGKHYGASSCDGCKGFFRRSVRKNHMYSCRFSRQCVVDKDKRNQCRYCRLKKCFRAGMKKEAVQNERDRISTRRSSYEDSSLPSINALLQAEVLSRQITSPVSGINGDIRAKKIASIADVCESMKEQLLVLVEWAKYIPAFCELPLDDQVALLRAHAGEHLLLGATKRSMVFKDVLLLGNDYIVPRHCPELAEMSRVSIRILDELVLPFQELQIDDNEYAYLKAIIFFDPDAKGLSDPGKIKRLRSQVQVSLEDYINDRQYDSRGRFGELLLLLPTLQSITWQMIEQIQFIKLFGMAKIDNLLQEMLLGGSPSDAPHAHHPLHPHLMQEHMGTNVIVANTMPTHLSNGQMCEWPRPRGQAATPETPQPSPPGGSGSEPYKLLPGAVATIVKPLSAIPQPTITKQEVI
ALR inh – inhibitors of human sulfhydryl oxidase ALR; purified ALR, DTT oxidation, H2O2 HRP-luminol luminescence; inhibition, % (concentration not given with the values); hit rate 3.8% among 290,000;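 active = mean and each replicate at 75% or more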;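 also: stock transfer was 7.5 nL into about 7.5 µL; 0% = neutral wells and 100% = wells with inactivated enzyme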
Target sequence (P55789 whole entry, looked up): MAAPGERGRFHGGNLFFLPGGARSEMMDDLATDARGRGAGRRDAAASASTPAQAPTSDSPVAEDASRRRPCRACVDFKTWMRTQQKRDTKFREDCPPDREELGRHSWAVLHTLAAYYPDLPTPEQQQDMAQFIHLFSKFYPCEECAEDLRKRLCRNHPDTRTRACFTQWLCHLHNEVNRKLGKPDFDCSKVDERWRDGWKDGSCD
Ecoli growth – E. coli growth inhibition; hit rate 0.21% among 330,000; Escherichia coli growth, OD600, 23 h; stronger effect = lower value; AID 1053175; OD600 absorbance (test concentration not listed);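 active = OD600 absorbance below the run mean of sample wells minus 3.6 SD, in any replicate, cut at about 0.56 in these data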;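 also: stock transfer was 300 nL into about 60 µL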
FGF22 binding – binders of recombinant human FGF22 by thermal shift; Q9HCT0; SYPRO orange fluorescence; percent of sucrose octasulfate shift, DMSO zero; calls only at 9.99 µM; hit rate 1.5% among 340,000; AID 651658;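 active = melting point raised past a set limit in the mean and every replicate; three in four hits are not shown here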
UCH37 DUB inh – inhibitors of human deubiquitinating enzyme UCH37; Q9Y5K5; purified proteasome/UCH37, Ub-AMC cleavage fluorescence; inhibition, % (test concentration not listed); hit rate 0.33% among 330,000;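 active = mean of two replicates above 20%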;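 also: 0% = compound-free wells with enzyme and 100% = wells lacking proteasome; stock transfer was 100 nL into about 20 µL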
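Material: Human UCH37 enzyme supplied as purified proteasome complex | Schedule: 30 min preincubation with enzyme, 25 min cleavage at room temperature | Detection: AMC fluorescence 355/460 nm | Measure: % inhibition of Ub-AMC cleavage fluorescence | Controls: Wells without proteasome as full block, compound-free enzyme plus substrate as uninhibited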
B2AR ag – activates human beta-2 adrenergic receptor causing internalization; response, % (no concentration beside the values); Am2.2-beta2AR cells, FAP receptor internalization, flow cytometry; reference of the scale not given here; hit rate 0.43% among 340,000; AID 504454; P07550;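 active = response above a set limit, near 3 SD of response in nonfluorescent compounds, cut at about 42% in these data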;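 also: stock transfer was 100 nL into about 11 µL; a reference agonist was the positive control; negative values mostly stem from fluorescent compounds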
Target sequence (P07550 whole entry, looked up): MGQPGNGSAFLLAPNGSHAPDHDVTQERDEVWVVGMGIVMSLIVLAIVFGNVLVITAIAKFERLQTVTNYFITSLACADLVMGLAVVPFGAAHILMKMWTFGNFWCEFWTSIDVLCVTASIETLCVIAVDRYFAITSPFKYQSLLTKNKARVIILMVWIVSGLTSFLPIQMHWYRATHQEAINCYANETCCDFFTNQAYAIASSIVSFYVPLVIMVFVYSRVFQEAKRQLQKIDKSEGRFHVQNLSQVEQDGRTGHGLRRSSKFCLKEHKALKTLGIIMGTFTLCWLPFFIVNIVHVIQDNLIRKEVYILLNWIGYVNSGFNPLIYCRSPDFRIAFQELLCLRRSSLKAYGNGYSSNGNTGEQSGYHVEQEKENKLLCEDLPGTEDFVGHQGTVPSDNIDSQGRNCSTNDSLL
Starred values were filed as active, the others as inactive; i = inactive; x = not tested or not shown. This is a subset. The share of hits here may be higher or lower than overall.

Values run as follows: LANA-H2B inh	HNF4A DNA FP	ALR inh	Ecoli growth	FGF22 binding	UCH37 DUB inh	B2AR ag
> C/C=C/C(=O)N1CC2(CC(c3cccc(NC(=O)COc4ccc(Cl)cc4)c3)=NO2)C[C@@H]1C(N)=O (stereo partly specified)
 : -3.2	3.5	-4	x	i	1.8	3
> CS(=O)(=O)c1ncc(Cl)c(C(=O)Nc2ccc(N3CCOCC3)cc2)n1
 : 5.3	1.6	55	0.67	x	7.4	20
> COc1cc(OC)cc(OC(=O)c2ccc3c(=O)n4c(nc3c2)CCC4)c1
 : 1.0	-2.8	-8	0.68	i	1.2	2
> CCOc1ccc(S(=O)(=O)Nc2ccccc2C(=O)NCC2CCCO2)cc1 (stereo unspecified)
 : 2.5	1.0	8	0.68	x	-29	-1
> O=C(O[C@@H]1OC2COC(=O)c3cc(O)c(O)c(O)c3-c3c(cc(O)c(O)c3O)C(=O)O[C@@H]([C@H]1O)[C@@H]2O)c1cc(O)c(O)c(O)c1
 : 4.7	-83	99*	x	x	x	0
> O=C(Nc1ccc(Cl)c(Cl)c1)c1ccc(Cl)c(Cl)c1
 : -0.5	-0.3	9	x	i	x	-6
> CC(NC(=O)COC(=O)c1ccccc1O)C1CC2CCC1C2 (stereo unspecified)
 : -1.0	-0.7	-2	0.7	i	2.3	0
> C/C(CC(=O)N1CCN(C=O)CC1)=N\NC(=O)c1ccc(Cl)cc1
 : -2.8	7.0	-7	x	i	x	0
> COc1cc(/C=C2/SC(=O)N(Cc3ccccc3Cl)C2=O)ccc1OCc1ccncc1
 : -7.0	-2.3	-8	x	x	-17	3
> COc1ccc(OCCCN2CCCCCC2)cc1
 : 0.9	-2.7	0	0.67	x	0.8	13
> Cc1cc(NC(=O)c2ccc(F)cc2)no1
 : -8.1	-0.1	-1	0.67	i	5.7	-5
> C=CCC[C@@H](Cc1ccc(F)cc1)C(=O)OC[C@H](C)NC(=O)[C@H](CC=C)CC(=O)N(CCO)Cc1ccccc1
 : 0.1	-2.0	-13	x	i	-2.1	2
> CNC(=O)c1sccc1Oc1ccc(F)cc1[N+](=O)[O-]
 : -1.7	2.8	-34	0.68	i	2.9	-1
> CCOc1ccccc1NS(=O)(=O)c1cn(C)c(=O)n(C)c1=O
 : 0.9	x	-2	0.7	x	-0.2	x
> Cc1ccc(S(=O)(=O)NCCC(=O)Nc2ncccc2O)cc1C
 : 5.4	-2.7	4	0.7	i	0.1	-2
> Cc1ccc(SCC(=O)NNC(=O)CNC(=O)c2ccc(Br)cc2)cc1
 : 2.1	0.0	-2	0.66	i	1.1	-1
> O=C(Nc1ccc2c(c1)OCO2)c1ccccn1
 : 3.3	3.9	0	0.66	i	2.5	-1
> CC(C)CCN(C(=O)Cc1ccccc1F)c1c(N)n(Cc2ccccc2)c(=O)[nH]c1=O
 : -1.7	-3.0	2	0.69	i	1.9	-5
> COc1ccccc1C1=CC(=O)C[C@H](c2ccc(F)cc2)C1
 : 1.4	3.0	-1	x	i	3.3	-16
> FC(F)(F)c1cnc(Nc2ccc(N3CCOCC3)cc2)c(Cl)c1
 : 0.6	0.9	40	0.72	x	2.2	3

(cont.)
Values run as follows: LANA-H2B inh	HNF4A DNA FP	ALR inh	Ecoli growth	FGF22 binding	UCH37 DUB inh	B2AR ag
> Cn1cccc1C(=O)OCc1cc(Cl)cc2c1OCOC2
 : 3.5	0.7	x	0.69	x	3.6	1
> COc1cccc(CN2CC(C(=O)NCCCc3ccncc3)CCC2=O)c1 (stereo unspecified)
 : -29	2.0	-11	0.72	i	4.4	0
> CCOc1c(Cl)cc(CNCc2ccncc2)cc1OC
 : 0.9	0.8	0	0.65	i	4.3	2
> COc1ccccc1/C=C/C=N/NC(=O)CC1C(=O)NN=C1C (stereo unspecified)
 : 4.0	2.5	74	x	i	x	3
> Cc1ccc(C2C(C#N)=C(N)Oc3n[nH]c(-c4ccccc4)c32)o1 (stereo unspecified)
 : 5.5	12	-12	0.78	x	3.8	8
> CC(C)N(Cc1nccn1C)C(=O)CC1C(=O)NCCN1Cc1ccc(F)c(F)c1 (stereo unspecified)
 : 0.4	1.1	-4	0.69	i	-1.6	-4
> CCN1C(=O)N[C@@H](c2cccc(C(F)(F)F)c2)[C@@H](C(=O)OC)[C@H]1C
 : -3.7	2.2	-4	x	i	2.9	-6
> C#CCOCCOCCOCCNc1nc(N2CCOCC2)nc(N2CCN(C(=O)[C@H](Cc3ccc(O)cc3)n3cc(CCO)nn3)CC2)n1
 : x	-2.5	x	x	x	1.3	-16
> O=C1/C(=C/c2cccnc2)CCC/C1=C\c1cccnc1
 : x	x	-4	0.62	i	7.1	x
> Cc1ccccc1CS(=O)(=O)CCC(=O)NCc1ccc(F)cc1Cl
 : 1.3	2.4	-2	0.71	i	6.4	-2
> CCOC(=O)C1C(c2ccc(O)cc2)NC(=O)NC1(O)C(F)(F)F (stereo unspecified)
 : 7.5	5.5	-4	0.67	i	1.8	3
> O=[N+]([O-])c1ccc(/C=C/C2=NN(c3ccccc3)C(c3ccco3)C2)cc1 (stereo unspecified)
 : -6.4	83*	x	0.7	x	9.9	i
> CC(OC(=O)C1CCN(c2ccc(C(F)(F)F)cn2)CC1)C(=O)c1ccccc1 (stereo unspecified)
 : -3.6	-2.4	0	0.64	i	2.2	6
> CN(C)CCCN=Cc1c(O)n(Cc2ccccc2)c(=O)c2ccccc12
 : 1.4	4.8	1	0.7	x	6.5	12
> CCNC(=S)NCc1ccc(Cl)cc1
 : -0.3	-2.0	-5	0.72	x	-0.9	2
> COc1ccc(N(CC(=O)Nc2cc(Cl)ccc2OC)C2=NC3CS(=O)(=O)CC3S2)cc1 (stereo unspecified)
 : -1.1	1.8	25	0.79	i	6.9	4
> CCCC(=O)Nc1ccc2nn(-c3ccc(OC)cc3)nc2c1
 : 8.1	-0.6	7	0.69	i	-382	11
> O=C(CS(=O)(=O)Cc1ccccc1)Nc1nc2c(s1)CCCC2
 : -0.1	-0.2	-10	0.67	x	2.1	1
> COc1ccc(C(=O)N/N=C\c2coc3ccc(Cl)cc3c2=O)cc1
 : 3.9	2.7	0	x	i	x	1
> Cc1ccc(NC(=O)CN2CCOCC2)cc1C
 : 3.8	-0.5	-4	0.66	i	4.0	6

(list continues)
Values run as follows: LANA-H2B inh	HNF4A DNA FP	ALR inh	Ecoli growth	FGF22 binding	UCH37 DUB inh	B2AR ag
> COc1ccc(C(=O)NC(C(=O)N2CCc3ccccc32)C(C)C)cc1 (stereo unspecified)
 : -2.3	1.1	-3	0.65	x	2.5	-7
> Cc1ccc(CNC(=O)CCC(=O)N2CC(C)Oc3ccc(Cl)cc32)cc1 (stereo unspecified)
 : -1.3	2.7	5	0.64	i	3.9	-7
> COc1ccc(CNC(=O)N2CCN(c3cccc(C)c3C)CC2)cc1OC
 : 1.5	2.1	-4	0.72	i	3.7	-7
> Cc1ccc(C(C)C)cc1S(=O)(=O)NCc1ccccn1
 : -2.4	0.3	-9	0.67	x	2.2	-4
> CCOc1ccc2nc(SCC(=O)c3ccccc3)sc2c1
 : 4.3	3.5	-7	0.7	i	0.5	4
> O=c1n(-c2ccccc2)c(=O)n2n1CC(O)C2
 : -0.3	-6.7	4	0.67	i	4.5	-3
> COc1ccc2[nH]c3c(N4CCC(O)(c5cccc(C(F)(F)F)c5)CC4)ncnc3c2c1
 : 2.9	0.6	-21	0.69	x	-62	14
> O=C(NCCc1cccc(C(F)(F)F)c1)C1CCC(=O)N(CCc2cccc(F)c2)C1 (stereo unspecified)
 : -0.3	4.7	-63	0.69	i	1.4	4
> Nc1nc2n(n1)C(c1ccco1)CC(c1ccccc1)N2 (stereo unspecified)
 : 0.5	-1.2	7	0.66	x	-1.5	1
> COc1ccc(-c2ccc(C3C(C#N)=C(N)Oc4n[nH]c(C)c43)o2)cc1 (stereo unspecified)
 : -1.2	61*	37	0.65	x	6.4	4
> N/C(=N\OC(=O)Cc1ccccc1)c1ccncc1
 : -2.9	3.4	-17	0.68	x	-0.8	-1
> COc1ccc(CC(=O)N/N=C/c2ccc(Cl)s2)cc1OC
 : 1.6	1.4	1	x	i	x	7
> CCCCCCOc1ccc(N2C(=O)CC(NCCc3ccc(S(N)(=O)=O)cc3)C2=O)cc1 (stereo unspecified)
 : -3.5	-0.7	-16	0.69	x	3.8	11
> CNC(=O)CN1C(=O)NC2(CCc3ccccc3C2)C1=O (stereo unspecified)
 : -2.8	-2.1	-6	0.67	i	-0.8	-4
> CCOc1ccc(CN2CCNC(=O)C2CC(=O)NCc2csc(C(C)C)n2)cc1 (stereo unspecified)
 : x	3.3	x	0.66	i	-1.7	12
> Cc1cccc(C)c1OCc1cc(C(=O)N2CCN(C3CCCC3)CC2)no1
 : -1.8	-1.2	0	0.68	i	5.4	19
> Cc1ccc(S(=O)(=O)/N=C(/Nc2c(C)n(C)n(-c3ccccc3)c2=O)c2ccccc2)cc1
 : -2.6	-4.2	0	0.67	i	2.6	10
> CCCCC(=O)Nc1sc2c(c1C(=O)OCC)CCC(C=O)=C2Cl
 : 1.9	1.1	25	x	x	x	-14
> CCOC(=O)c1cc2c(=O)n3cccc(C)c3nc2n(CCOC)c1=NC(C)=O
 : -0.8	-0.9	-7	0.7	i	-391	-4
> Cc1cc2[nH]c(=O)c(=O)[nH]c2cc1S(=O)(=O)NC1CCCCC1C (stereo unspecified)
 : 1.8	0.7	-59	0.75	x	-53	3

Quoted from the listing:
ALR inh, Cc1ccc(C(C)C)cc1S(=O)(=O)NCc1ccccn1 = -9
UCH37 DUB inh, Nc1nc2n(n1)C(c1ccco1)CC(c1ccccc1)N2 (stereo unspecified) = -1.5
LANA-H2B inh, Cc1cccc(C)c1OCc1cc(C(=O)N2CCN(C3CCCC3)CC2)no1 = -1.8

Continued:
Values run as follows: LANA-H2B inh	HNF4A DNA FP	ALR inh	Ecoli growth	FGF22 binding	UCH37 DUB inh	B2AR ag
> CCN(CC(=O)NCc1ccc(Cl)cc1)C(=O)c1cnc(Cl)c(Cl)c1
 : 3.5	1.2	-3	0.63	i	0.1	5
> O=C1CCCN1CCCNCCCn1cnc2c(OCc3ccccc3)ncnc21
 : x	0.5	x	x	i	x	-8
> Cc1c(C(=O)Oc2cccc3cccnc23)cccc1[N+](=O)[O-]
 : -2.4	-1.3	x	0.68	i	0.7	-7
> COc1ccc(C(=O)[C@@H]2CC[C@](C)(C(=O)O)C2(C)C)cc1
 : -0.5	-1.8	x	x	i	-3.6	-5
> COc1ccccc1CN1CCCC(N2CCN(c3ccccc3OC)CC2)C1 (stereo unspecified)
 : -0.1	-0.2	14	0.66	i	5.2	-4
> COCCn1cnnc1SCC(=O)Nc1ccc(N2CCCCC2)cc1
 : 19	3.8	95*	0.7	i	3.1	2
> CCCN(C(=O)c1cc(C)ccc1C)c1c(N)n(Cc2ccccc2)c(=O)[nH]c1=O
 : -1.7	-1.6	x	0.65	i	1.3	-1
> COc1ccccc1-c1c(C)oc2c(CN3CCN(CCO)CC3)c(O)ccc2c1=O
 : x	-1.4	x	0.7	x	-169	0
> CCCOc1ccc(N2CC(C(=O)Nc3ccccc3C(=O)NC)CC2=O)cc1 (stereo unspecified)
 : 5.0	0.2	-11	0.73	i	3.2	-1
> O=C(CCNC(=O)c1ccco1)Nc1ccc(OC(F)F)cc1
 : 1.8	5.7	-3	0.65	i	0.0	4
> CSc1nnc([C@H](Cc2c[nH]c3ccccc23)NC(=O)OC(C)(C)C)o1
 : -5.2	-0.7	x	0.68	i	6.1	-7
> CCOC(=O)N1CCN(CCc2ccccc2)CC1
 : -6.5	-3.6	3	0.69	i	3.6	-9
> Cc1ccc2nc(-c3ccc(NC(=O)C4CCCO4)cc3)[nH]c2c1 (stereo unspecified)
 : 4.0	-1.7	32	0.65	x	-24	-3
> CCc1nc(SCC(=O)Nc2cc(C)on2)n[nH]1
 : -1.6	-0.9	x	0.74	x	3.9	8
> Cc1cc(C)c(S(=O)(=O)N(C)CC(=O)NCCN2CCOCC2)c(C)c1
 : -3.4	-3.2	0	0.63	i	0.2	8
> Cc1ccc(OCc2cc(C(=O)Nc3ccccc3)oc2C)cc1
 : 7.5	-0.3	-7	0.7	x	5.6	3
> Cc1nn(C)c(Cl)c1NC(=O)OCc1ccc(F)cc1
 : 4.0	-0.9	-6	0.69	x	1.8	14
